Screens (PubChem BioAssay)
Calb biofilm kill = mixtures killing C. albicans biofilm; C. albicans biofilm persisters + clotrimazole, fluorescence viability; primary screen in compound mixtures of four per well; 120,000 compounds, 0.02% hits; AID 1242; inhibition, % at 7.6 µM;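 active means inhibition above 30.3% in the primary screen of four-compound pools, then above 30% when the compound was retested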;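 further: compounds exposed to preformed 24 h biofilms for 48 h; the number belongs to the whole pool; some results filed as inactive read as strong as hits; inactives centre near 12; 0% = biofilm with clotrimazole alone and 100% = kill control; retested singly at about 60 µM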
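Probe or stimulus – Clotrimazole 50 µg/mL co-treatment · System – C. albicans biofilms · Schedule – 24 h biofilm formation, then 48 h compound exposure, 37 °C · Evaluation – percent inhibition of biofilm viability · Technique – 2-h Alamar Blue fluorescence, 535/590 nm excitation/emission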
Numbers without * were called inactive.

compound | Calb biofilm kill
CCCCCNCC(=O)Nc1cc(C(F)(F)F)ccc1OCCOC | 9
O=C(CN1CCOCC1)NNc1c2ccccc2nc2ccccc12 | 5
Cc1c(Cl)c([N+](=O)[O-])nn1CC(=O)N1CCCc2ccccc21 | 20
O=C(NNc1nc2ccccc2s1)c1ccc(F)cc1 | -5
CNC(=O)c1sc(Nc2cc(C)ccc2C)nc1C | 10
CN(C)S(=O)(=O)c1cccc(C(=O)NC(=S)N(CCC#N)Cc2cccnc2)c1 | 13
CCn1cc(/C=N\NC(=O)Cc2ccc([N+](=O)[O-])cc2)c(C)n1 | 16
COc1cccc(/C=N/NC(=O)c2cc3c(OC)cccc3[nH]2)c1OC | 17
COc1cccc(OCC(O)CN2CCN(c3ccc(Cl)cc3)CC2)c1 (stereo not given) | 15
Cc1cc(NC(=O)CN(C)C)c([N+](=O)[O-])cc1C | 8
O=C(COc1ccccc1/C=C1\SC(=O)NC1=O)Nc1ccccc1 | 9
S=c1[nH]nc(-c2ccco2)n1/N=C/c1ccc(Cl)c(Cl)c1 | 18
Cc1ccccc1SCCNC(=O)c1ccccc1Br | 6
O=C(Nc1ccc(S(=O)(=O)N2CCCC2)cc1)c1cccs1 | 31
CCOC(=O)c1c(NC(=O)CC(C)C)sc(C(C)=O)c1C | 15
COc1cc(OC)c(S(=O)(=O)Nc2ccccc2N2CCOCC2)cc1NC(C)=O | 27
CCOC(=O)CSc1nc(=O)n2cccc(C)c2n1 | -1
O=C(COc1ncnc2c(Cl)cc(Cl)cc12)Nc1cc([N+](=O)[O-])ccc1Cl | 9
O=C(O)c1cccc(-c2nc3ccccc3[nH]2)c1 | 13
CN(C)S(=O)(=O)c1cccc(-n2sc3ccccc3c2=O)c1 | 14
CCCNC(=O)CCn1nc(-c2ccc(Cl)cc2)c2ccccc2c1=O | 24
N#Cc1c(N2CCN(c3ccc(F)cc3)CC2)nc(N)c2c(N)nc3c(c12)CC(=O)N3C1CC1 | 10
CCCCCC(=O)Nc1cccc(C2=NOC3(C2)C[C@H](C(N)=O)N(C(=O)CC#N)C3)c1 (stereo not given in full) | 13
CC1=C(C#N)S(=O)(=O)C(C#N)C(c2ccccc2)C1 (stereo not given) | 29
CCOC(=O)Cc1csc(CC(N)=O)n1 | 18
CCOC(=O)C1(Cc2cccc(F)c2)CCN(CC(O)CO)CC1 (stereo not given) | 19
Cc1ccc(N2CCN(CCCN3C(=O)C4CCCN4C3=O)CC2)cc1 (stereo not given) | 11
CCOc1ccc(N(C(=O)c2cnccn2)C(C(=O)NC2CCCCC2)c2ccc(O)cc2)cc1 (stereo not given) | 24
CCOC(=O)/C=c1\s/c(=C\c2ccc(C)cc2)c(=O)n1CC(=O)NCc1ccco1 | 9
O=C1Nc2c(Br)cc(Br)c3cccc1c23 | 17
O=C1CCCc2oc3ccc(NS(=O)(=O)c4cccc5cccnc45)cc3c21 | -1
COc1cccc(NCc2ccc([N+](=O)[O-])s2)c1 | 12
O=C(O)COCc1nc2ccccc2s1 | 21
COc1cc(/C=C(\C#N)C(N)=O)ccc1OCc1c(C)no[n+]1[O-] | 10
COc1cc(/C=N/Nc2nc(N3CCCCC3)nc(N3CCCCC3)n2)ccc1OC(=O)c1ccco1 | 10
O=C(O)CNC(=O)C(c1ccccc1)c1ccccc1 | 13
Cc1ccc(SCCN2CCN(CCc3ccccc3)CCC2=O)cc1 | 15
COc1ccc(/C(C)=N/NC(=O)CNC(=O)CCc2ccccc2)c(OC)c1 | 28
COc1ccc(/C=N/NC(=O)CCSc2nc3ccccc3s2)cc1OC | 8
Cn1nc(C(=O)OCC(=O)Nc2cccc(S(=O)(=O)N3CCCC3)c2)c2ccccc2c1=O | 5
O=S(=O)(NCC1CCCO1)c1cnc(Cl)c(Cl)c1 (stereo not given) | 17
COc1ccc([N+](=O)[O-])cc1NC(=O)CSc1ccc2ccccc2c1 | 5
O=C1CC2c3ccccc3C1C1C(=O)N(CCO)C(=O)C21 (stereo not given) | 13
CCOc1ccc(OCCSc2nc(N)cc(=O)[nH]2)cc1 | 14
O=C(Nc1c(S(=O)(=O)c2ccccc2)csc1Br)c1ccccc1Cl | 12
CC1(C)CC(=O)C=C(NCCN2CCN(C(=S)Nc3ccc(F)cc3)CC2)C1 | 13
C=CCOC(=O)C(=O)/C=C/c1coc2ccccc2c1=O | 13
Cc1cccc(Nc2nnc(SCC(=O)Nc3ccccc3[N+](=O)[O-])s2)c1C | 0
S=C(NC1CCCCC1)N1CCn2cccc2C1c1cccnc1 (stereo not given) | 17
COC(=O)c1ccc(C(=O)OC)c(NC(=S)N2CCCC(C)C2)c1 (stereo not given) | 9
C=CCn1c(CCCOc2ccc(Cl)cc2Cl)n[nH]c1=S | 18
CC(=O)c1ccc(-c2ccccc2[C@H]2[C@H]3C=CC[C@@H](C)[C@@H]3C(=O)N2Cc2ccccc2)cc1 | 16
Cc1csc(N2CCCC2=O)n1 | 3
CC1=NN(C(=O)c2c(Br)c(C)nn2C)C(O)(C(F)(F)F)C1 (stereo not given) | 6
O=C(CN1CCCCCC1)NCC1CCCO1 (stereo not given) | 34
COc1ccc(C(=O)N/N=C/c2ccc3cccc(O)c3n2)cc1 | 18
CCc1cc(CNC(=O)CC2C(=O)NCCN2Cc2ccccc2C(F)(F)F)on1 (stereo not given) | 20
O=C(NC(=S)NNC(=O)c1ccc(Cl)cc1Cl)c1cccnc1 | 7
Cc1ccc(CCc2nnc(SCC(=O)Nc3cccc(Cl)c3)n2-c2ccccc2)o1 | 11
COc1ccc(OC)c(NC(=S)NCC(c2cccnc2)N2CCOCC2)c1 (stereo not given) | -1

(next part)
compound | Calb biofilm kill
O=C1C=C(Nc2ccccc2)C(=O)c2ccccc21 | 18
COC(=O)c1ccc(COc2ccccc2/C=C(\C#N)C(=O)Nc2ccc(C)cc2)cc1 | 15
O=C(Nc1nccs1)C1CCN(S(=O)(=O)c2cccs2)CC1 | 2
O=[N+]([O-])c1cc(S(=O)(=O)N2CCCC2)ccc1SCCO | 22
Cc1ccc2c(c1)c(N=Nc1cccc(C(=O)O)c1)c(O)n2C | 5
CCOC(=O)c1c(NC(=O)CSc2ncnc3[nH]ncc23)sc2c1CCC(C)C2 (stereo not given) | 6
CN1CCN(c2nc(-c3cccs3)cs2)CC1 | 0
COc1ccc(-c2nc3c(c4nnc(SC(C)C(=O)Nc5ccccc5)n24)COC(C)(C)C3)cc1 (stereo not given) | 6
C=CCNCCCCOc1ccccc1-c1ccccc1 | 12
COc1ccc(C2CC(=O)N(c3ccccc3)C3=C2C(=O)CCC3)cc1 (stereo not given) | -2
C[C@@H]1NC(=O)c2cc([N+](=O)[O-])cc(I)c2OCC[C@@H](C(=O)NC(CC(=O)O)C(N)=O)NC(=O)[C@H](CCC(=O)O)NC1=O (stereo not given in full) | 19
CCn1c(=O)c(C(=O)Nc2ccccc2C)c(O)c2ccccc21 | 10
N/C(=N\OC(=O)c1ccc2c(c1)OCO2)c1cccc(Br)c1 | 8
COc1cc(C(C)=O)ccc1COc1ccc(C(=O)OCC(=O)NC2CCS(=O)(=O)C2)cc1OC (stereo not given) | -10
Cc1ccc(SCc2nc3ncccn3c2Br)cc1 | 16
COc1ccc(S(=O)(=O)N(C)C)cc1NCC(=O)Nc1cccc(C#N)c1 | -1
CSc1nc2c(cc1C#N)CCCCC2 | 12
COc1cc(/C=C/c2nc3ccc([N+](=O)[O-])cc3s2)ccc1OCC(=O)O | 22
COc1ccc(OC)c(Cc2nnc(CCC(=O)NCc3ccsc3)o2)c1 | 22
CN(CC(=O)Nc1ccc(N2CCOCC2)cc1)Cc1cc(=O)n2ccsc2n1 | 10

Some of the entries so far, field by field.
COc1ccc(C2CC(=O)N(c3ccccc3)C3=C2C(=O)CCC3)cc1 (stereo not given)
  Calb biofilm kill: -2
COc1cc(/C=C/c2nc3ccc([N+](=O)[O-])cc3s2)ccc1OCC(=O)O
  Calb biofilm kill: 22
CN1CCN(c2nc(-c3cccs3)cs2)CC1
  Calb biofilm kill: 0
O=[N+]([O-])c1cc(S(=O)(=O)N2CCCC2)ccc1SCCO
  Calb biofilm kill: 22

Next section
compound | Calb biofilm kill
Cc1cccc(N2CCN(C(=O)c3ccc(CNc4c(N5CCC(C)CC5)c(=O)c4=O)cc3)CC2)c1C | 19
COc1ccc2nc(NC(=O)c3ccc(NS(=O)(=O)c4cccs4)cc3)sc2c1 | 13
CCCCNC(=S)NNC(=O)c1ccc2c(c1)OCO2 | 21
O=C(CSc1ccccn1)NC1CCCC1 | -10
Cc1ccnc(NS(=O)(=O)c2ccc(NC(=O)CN3C(=O)CCC3=O)cc2)n1 | 2
COC(=O)c1scc(C)c1NC(=O)C(Cl)c1ccccc1 (stereo not given) | 18
Clc1cccc(N2CCN(Cc3nnc(-c4ccccc4)o3)CC2)c1 | 1
CCOC(=O)C1(C)NC(c2ccco2)C2C(=O)N(c3ccccc3)C(=O)C21 (stereo not given) | 16
O=C(O)CCC(=O)NCC(=O)c1ccc(F)cc1 | 11
CC(C)N(C(=O)CC1ON(C)C(=O)N1c1ccc(Cl)cc1)C(C)C (stereo not given) | 14
O=C(c1cc(-c2ccccc2)nc2ccccc12)N1CCCc2ccccc21 | 20
O=C(Nc1ccc(CN2CCS(=O)(=O)CC2)cc1)c1ccc(F)cc1 | 19
CC(C)(C)NC(=O)NC(=O)CN1CCC(Cc2ccccc2)CC1 | 1
CC1(C)OC(c2ccccc2)=C/C(=C/C=C2C(=O)c3ccccc3C2=O)O1 | 19
COc1ccc(/C=N/NC(=S)Nc2cccc(C(=O)O)c2)cc1OC | 15
O=C(Nc1ccccc1Cl)c1ccc2c(c1)N(Cc1ccc(F)cc1)C(=O)CS2=O (stereo not given) | 8
O=c1[nH]c(/C=C/c2cccnc2)c([N+](=O)[O-])c(=O)[nH]1 | -1
CCSc1nc(=S)n(Cc2ccccc2)c(C)c1C(C)=O | 15
CN(C)c1c2ccccc2nc2c(F)c(F)c(F)c(F)c12 | 15
COc1ccc(OC(C)C(=O)NCCc2nc3ccccc3[nH]2)cc1 (stereo not given) | 9
O=C(COC(=O)/C=C/c1cccc(Cl)c1)Nc1ccccc1-c1ccccc1 | 16
Cc1cc(C(=O)NNC(=O)c2nn(C)c(=O)c3ccccc23)c(C)o1 | 25
COc1ccccc1NC(NC(=O)c1cccnc1)C(Cl)(Cl)Cl (stereo not given) | -8
O=C(CNC(=O)c1ccco1)N/N=C/c1cccs1 | 28
O=C(O)/C=C/C(=O)NCCC1=CCCCC1 | 15
Cc1ccc(NC(=O)CCC(=O)NNC(=O)c2ccccc2[N+](=O)[O-])c(C)c1 | 5
CC(=O)c1c(O)ccc2c(-c3ccccc3)cc(=O)oc12 | 16
COC(=O)Cn1c(=NC(=O)c2sc3ccccc3c2Cl)sc2cc(S(N)(=O)=O)ccc21 | 18
O=C1COc2ccc(C(=O)c3ccccc3C(=O)O)cc2N1 | 19
Nc1ccc(CNc2ncn[nH]2)cc1 | 19
COc1ccc(/C=C/C(=O)c2ccc3ccccc3c2O)cc1CN1CCOCC1 | 9
Cc1cc(N/N=C/c2ccc(O)cc2O)nc(N2CCOCC2)n1 | 15
Cc1cccc(-n2nc3c(c2NC(=O)c2ccco2)CS(=O)(=O)C3)c1C | 14
O=C(O)CC(NC(=O)C(c1ccccc1)c1ccccc1)c1ccc(F)cc1 (stereo not given) | 14
CN(C)CCCN1C(=O)C(O)=C(C(=O)c2cccs2)C1c1cccc([N+](=O)[O-])c1 (stereo not given) | 17
COc1cccc(/C=C2\SC(=S)NC2=O)c1OS(=O)(=O)c1ccc(NC(C)=O)cc1 | 17
CCC(=O)N1C(C(=O)N2CCCC2)CSC1c1ccc(OC)cc1 (stereo not given) | 20
O=C1c2ccccc2C(=O)c2cc(S(=O)(=O)Nc3ccccc3)ccc21 | 12
Cc1ccc(NS(=O)(=O)c2ccc(NC(=O)c3cccs3)cc2)c(C)c1 | 9
COc1ccc(Cl)cc1NC(=S)N1CCN(S(C)(=O)=O)CC1 | 32

Grouped by structure, the compounds so far with a CF3 group.
compound | Calb biofilm kill
CCCCCNCC(=O)Nc1cc(C(F)(F)F)ccc1OCCOC | 9
CC1=NN(C(=O)c2c(Br)c(C)nn2C)C(O)(C(F)(F)F)C1 (stereo not given) | 6
CCc1cc(CNC(=O)CC2C(=O)NCCN2Cc2ccccc2C(F)(F)F)on1 (stereo not given) | 20

Returning to the listing; the two compounds before the break are reprinted first.
compound | Calb biofilm kill
Cc1ccc(NS(=O)(=O)c2ccc(NC(=O)c3cccs3)cc2)c(C)c1 | 9
COc1ccc(Cl)cc1NC(=S)N1CCN(S(C)(=O)=O)CC1 | 32
Cc1ccc(N(C(=O)c2csnn2)C(C(=O)NC(C)(C)C)c2ccccn2)cc1 (stereo not given) | -6
Cc1ccc(C2=NN=C(NC(=O)CSc3nncn3C)SC2)cc1 | 1
CC1CC(C)CN(C(=O)/C=C/c2ccc([N+](=O)[O-])s2)C1 (stereo not given) | 10
COc1cccc(OCc2nc(-c3cccc([N+](=O)[O-])c3)no2)c1 | 13
O=C(COC(=O)c1ccc(NS(=O)(=O)c2cccs2)cc1O)Nc1ccc(F)cc1 | 11
COc1ccccc1C(=O)C1CCCN(C(=O)CSc2ccccn2)C1 (stereo not given) | 14

A portion of the library; the hit share may differ from the screen's.
